CSC inhib = cancer stem cell viability inhibitors, primary screen, luminescence; inhibition, % at 7.5 µM; 300,000 tested, 1.1% active; AID 2717, 2010; cancer stem cell-like cells viability;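 active means mean at 75% or more and at least half the replicates too; inconclusive means mean and replicates disagree; tested in HMLE shEcad cells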;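 further: 0% = median of negative and 100% = median of positive control wells; the first replicate is given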
Yeast UUG start = modulators of yeast start codon fidelity, primary screen, whole organism, S. cerevisiae, single point, plate reader | S. cerevisiae UUG-firefly luciferase reporter, luminescence/redox ratio | activity score, % at 18.7 µM | 350,000 tested, 0.13% active | AID 602363, 2012;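 active means replicate mean at a twofold rise or more, about +100% in these data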;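 further: firefly luciferase made from a UUG start codon reports start codon fidelity; reporter light over untreated wells divided by growth signal over untreated wells; some hits fall short of that in this replicate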
MT1-MMP act inh = blockers of MT1-MMP proenzyme processing, primary screen, HT1080 RFP-PRO-GFP cells, GFP/RFP fluorescence | GFP/RFP ratio fluorescence, overnight; percent of plate control window, DMSO zero | GFP/RFP ratio change, % at 20 µM | 360,000 tested, 0.061% active | AID 651647, 2012;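 active means GFP/RFP ratio change of at least 30% with cell ATP level not reduced by more than half and red fluorescence within 50% of control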; further: strong numbers were not always called active
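Read-out: GFP/RFP fluorescence ratio; Test system: RFP-PRO-GFP reporter HT1080 cells; Compound dosing: single-point 20 µM compound, 1% DMSO; Times: overnight compound exposure at 37 °C.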
PABP polyA inh = PABP poly(A) RNA binding inhibitors, primary screen, biochemical, fluorescence polarization, uHTS; Polyadenylate-binding protein 1 (Homo sapiens), P11940; inhibition, % at 35 µM; 290,000 tested, 1% active;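 active means 50% or more with normal probe brightness, or confirmed in later tests; inconclusive means above 50% with abnormal brightness, or retests that disagree; inactive means below 50% or failed in later tests; about a fifth of its hits are not listed in these tables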;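 further: calls also rest on retests at 20 µM and on dose response follow-up; controls were probe without protein and protein plus probe with vehicle; some compounds called inactive have numbers as strong as hits; many hits fall short of the cut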
HIV Env fusion = inhibitors of HIV-1 Env-driven cell-cell fusion, primary screen, HeLa-JRFL effector, CEM21 target cells, luciferase; inhibition, % at 12.3 µM; 360,000 tested, 1.1% active;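 active means mean replicate inhibition score of at least 50 and every replicate individually at or above 50; inconclusive means only one of the two criteria met; inactive means mean below 50 and not all replicates reaching 50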;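 further: 0% = plate neutral controls and 100% = maraviroc near 300 nM; one replicate is shown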
Rce1 inh = yeast Rce1p protease inhibitors, primary screen, biochemical, fluorescence, cell-free homogeneous; calls only; AID 2563, 2010; CAAX prenyl protease 2 (Saccharomyces cerevisiae (strain ATCC 204508 / S288c)), Q03530; yeast membranes, quenched prenylated peptide cleavage fluorescence; 290,000 tested, 0.27% active;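 active means fall in fluorescence gain of 50% or more versus controls, with final raw signal at or below 3038400; inconclusive means same 50% fall but final raw signal above 3038400; inactive means fall in fluorescence gain under 50%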;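 further: plate controls were neutral control wells for no effect and wells lacking membranes for full effect; tested at 10 µM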
Target sequence (Q03530 whole entry, looked up): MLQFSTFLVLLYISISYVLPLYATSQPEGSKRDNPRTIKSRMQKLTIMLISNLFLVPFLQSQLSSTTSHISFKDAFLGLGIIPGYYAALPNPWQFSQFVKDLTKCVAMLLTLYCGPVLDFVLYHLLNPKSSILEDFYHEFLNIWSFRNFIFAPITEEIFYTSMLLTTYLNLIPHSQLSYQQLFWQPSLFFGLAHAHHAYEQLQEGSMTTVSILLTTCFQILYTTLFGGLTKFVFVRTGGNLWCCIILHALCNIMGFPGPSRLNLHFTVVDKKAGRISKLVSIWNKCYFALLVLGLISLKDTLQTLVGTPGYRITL
eIF4H FP inh = human eIF4H binding inhibitors, primary screen, translation initiation inhibitor project, biochemical, uHTS, fluorescence polarization. inhibition, % at 35 µM. Eukaryotic translation initiation factor 4H (Homo sapiens), Q15056. AID 2012, 2009. eIF4H fluorescence polarization binding assay. 290,000 tested, 0.94% active;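 active means 50% or more with normal probe brightness, or confirmed in later tests; inconclusive means above 50% with abnormal brightness, or retests that disagree; inactive means below 50% or failed in later tests; about a fifth of its hits are not listed in these tables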;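 further: calls also rest on retests at 20 µM and on dose response follow-up; 0% = protein and probe with vehicle and 100% = probe without protein; strong numbers were not always called active; many hits fall short of the cut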
MT1-MMP act inh RFP = recorded beside MT1-MMP act inh, whose call it bears; RFP signal change, %; measured here: RFP expression control read;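 0 = vehicle wells; hits needed this value within 50% of zero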
An asterisk follows results filed as active; i = inactive; u = inconclusive; x = not tested or not shown; & = joins results of further samples.

Every second line gives: CSC inhib	Yeast UUG start	MT1-MMP act inh	MT1-MMP act inh RFP	PABP polyA inh	HIV Env fusion	Rce1 inh	eIF4H FP inh
- COC(=O)c1cccc(NC(=S)Nc2cccc(Cl)c2Cl)c1
    -7	x	-7	0	15	x	i	-12
- Cc1ccc(S(=O)(=O)N2[C@@H](c3ccccc3)C(C(=O)O)=CC[C@H]2c2cccc(Cl)c2)cc1
    -5	-14	3	3	x	10	x	x
- COc1ccc(OCC(=O)NCCNC(=O)c2ccncc2)cc1
    1	-18	3	5	3	-19	i	-2
- O=C(c1ccc(N2CN(C(=O)c3ccco3)c3nc4ccccc4nc32)cc1)N1CCOCC1
    1	1	3	0	1	x	i	-6
- Cc1cccc(NC(=O)C2CCCN(S(=O)(=O)c3ccc4[nH]c(=O)ccc4c3)C2)n1 (centres undefined)
    -1	-24	4	-10	5	7	i	-9
- COC(=O)c1ccccc1NC(=O)COC(=O)c1ccccc1N=Nc1ccc(N(C)C)cc1
    15	x	11	5	9	-3	i	2
- CCOC(=O)N1CCN(S(=O)(=O)c2ccc(C)cc2)C1c1ccccc1 (centres undefined)
    -4	-5	-7	0	-2	21	i	3
- CC(SCc1ccccc1)C(=O)NN=C1CCN(C)CC1 (centres undefined)
    -12	-7	2	0	-12	x	i	6
- CCOC(=O)C1(CCOc2ccccc2)CCN(C(=O)CCSC)CC1
    -2	0	-1	0	x	-2	i	x
- CCOC(=O)NC(Nc1ncccn1)(C(F)(F)F)C(F)(F)F
    -17	-5	3	4	-8	x	i	-8
- COCCNC(=O)c1c(CSc2ccccc2)noc1C(=O)NCc1ccccc1
    1	-18	3	0	-7	16	i	-6
- O=C(NC12CC3CC(CC(C3)C1)C2)c1ccc(-c2cccc(Cl)c2)o1
    95*	x	-9	-4	0	-141	i	-11
- COc1ccc2cc(C3(C)NC(=O)N(CC(=O)NCc4ccco4)C3=O)ccc2c1 (centres undefined)
    -1	5	-3	-7	4	-85	i	8
- Cc1ccc(S(=O)(=O)N(C)C)cc1NC(=O)COC(=O)Cc1ccccc1F
    -10	x	-5	-1	x	x	i	x
- COc1ccc(-c2nnc(SCC(=O)NCc3ccco3)o2)cc1
    -10	-5	2	1	3	-10	i	-1
- CSc1ccccc1NC(=O)CN(C)CC(=O)Nc1ccc(Cl)cc1F
    -26	x	1	3	-2	1	i	-9
- CC(=O)N1CCN(S(=O)(=O)c2cccc(C(=O)NNC(=O)Cn3ccc(C(F)(F)F)n3)c2)CC1
    x	x	0	-3	x	-8	i	x
- Cc1cc(C)n(-c2ccc(C(=O)N3CCc4ccccc43)cc2)n1
    0	-6	3	-3	-8	-83	i	-1
- CCCCN1C(=O)/C(=C2\SC(N3CCCCC3)=NC2=O)c2ccccc21
    42	-15	4	-13	-4	-96	i	-8
- Cc1cccc(NC(=O)c2ccc(C(=O)Nc3cccc(C)c3)nc2)c1
    60	x	1	-12	3	-34	i	4
- Cc1cc(NC(=O)COC(=O)c2c(C)c(C)c(C)c(C)c2C)no1
    -1	2	-1	-1	x	6	x	x
- NC(=O)CCn1cnc2ccccc21
    5	x	1	6	-2	-32	i	-10
- Cc1nn2c(COc3ccc(NC(=O)C(C)C)cc3)nnc2c2ccccc12
    -11	-3	1	-2	-5	-11	i	1
- Cc1ccc(NC(=O)c2cccc(S(=O)(=O)N3CCCCC3)c2)cc1
    0	4	-3	-13	1	-5	i	0
- CCOc1cccc(OCCCCN2CCCCC2)c1
    3	-8	4	6	-1	-85	i	3
- C(=C\c1cccc2ccccc12)/c1nnc(-c2cccs2)o1
    -1	x	-4	-3	3	x	i	-2
- CC(C)C(NC(=O)c1ccccc1)C(=O)N1CCN(C/C=C/c2ccccc2)CC1 (centres undefined)
    x	-7	-3	-2	x	2	x	x
- Cc1ccc(C)c(N(C(=O)c2nsc(Cl)c2Cl)C(C(=O)NC2CCCC2)c2ccc(O)cc2)c1 (centres undefined)
    x	7	-46	-38	3	89*	i	1
- CC1(C(=O)NS(=O)(=O)c2ccc(Cl)cc2)CCN1C(=O)C1(c2ccc(Cl)cc2)CC1 (centres undefined)
    x	13	1	0	x	1	x	x
- COC(=O)CN(c1ccccc1)S(=O)(=O)c1ccc(F)cc1
    7	1	3	1	-1	x	i	0
- CCOCCC(=O)Nc1nnc(CCc2ccccc2)s1
    x	-7	1	-1	-8	-15	i	-13
- CSc1ccccc1NC(=O)CN(C)C(C)C(=O)NCc1ccc2c(c1)OCO2 (centres undefined)
    -11	-16	1	0	x	-4	x	x
- O=c1c2nnn(Cc3ccccc3)c2ncn1-c1ccccc1
    x	-16	-3	-1	9	x	i	2
- O=C(OCC(=O)N1CCCC1=O)c1cc(S(=O)(=O)N2CCOCC2)ccc1Cl
    2	-2	0	-1	x	7	i	x
- OC(c1ccccc1)(c1ccccc1)C1CCN(C(=S)NCCc2ccccc2)CC1
    24	x	-5	-6	-19	-7	i	-2
- COc1ccc(N=C2NC(=O)/C(=C/c3ccc(O)c(OC)c3)S2)cc1
    49	x	-103	-2	1	-36	i	13
- Cc1ccc(S(=O)(=O)N2CCCC2)cc1C(=O)NC1CCCCC1
    12	-13	2	3	8	4	i	-12
- O=C(c1cccc(C(=O)N2CCC(O)(c3ccccc3)CC2)c1)N1CCC(O)(c2ccccc2)CC1
    5	-8	3	2	x	10	i	x
- COc1cc(NC(=O)CSc2nnc(C)s2)cc(OC)c1
    -6	4	-2	1	9	x	i	-4
- COc1ccc(CNC(=O)C2CCCN2)cc1OC (centres undefined)
    -3	x	-1	-2	7	9	i	9
- Cc1cc(C)c2nc(SCc3ccc([N+](=O)[O-])cc3)nc(C)c2c1
    0	-5	-2	-2	-6	-29	i	-9
- NC(=S)NN=Cc1ccc(OC(=O)COc2cc(Cl)c(Cl)cc2Cl)cn1
    x	8	-3	-6	x	74*	x	x
- Nc1[nH]nc2nc(NCc3ccccc3)c3c(c12)CCN(Cc1ccccc1)C3
    20	-22	5	4	-2	x	i	6
- CN1CCN(C(=O)c2cc(Cl)cc(Cl)c2NC(=O)c2ccco2)CC1
    -1	x	0	8	-4	8	i	2
- CC(C)(C)N/N=C/c1c(O)n(-c2ccc(Cl)cn2)c(=O)c2ccccc12
    -2	x	-3	4	3	0	i	0
- O=C(COC(=O)COc1ccccc1)NCCc1ccccc1
    x	x	2	2	x	-1	i	x
- COc1ccc(OC)c(C2NC(=O)NC(C)=C2C(=O)OC2CCCCC2)c1 (centres undefined)
    -9	-6	-2	-4	8	8	i	1
- CC(=O)Oc1c(Sc2ccccc2[N+](=O)[O-])c(C)nn1C(C)(C)C
    -5	x	2	-1	u	5	i	-6
- C=CCn1cc(C(=O)NCCCOCC)c(=O)c2cc(S(=O)(=O)N(CC)CC)ccc21
    7	-5	0	-3	-4	-131	i	-1
- CCOc1ccc(N(C(=O)c2ccccc2Cl)C2=NC(C)(C)CS2)cc1
    6	x	4	-2	17	-8	i	2
- CCOC(=O)Cc1csc(NC(=O)c2ccco2)n1
    x	-17	-8	0	5	-24	i	1
- Cc1c(C)n(Cc2ccccc2)c2ncnc(NCCCN(C)C)c12
    56	-19	0	1	10	10	i	2
- COc1ccc(NC(=O)C2CCCN2C(=O)NC2CCCCC2)c(OC)c1 (centres undefined)
    x	-1	1	6	-1	4	i	-3
- CCc1ccc(CNC(=O)C2CCCN(S(=O)(=O)N3CC(C)CC(C)C3)C2)cc1 (centres undefined)
    1	-3	-13	-12	-8	13	i	-9
- CC(C)(O)CCC(C)(C)O
    -5	-9	0	7	x	x	x	x
- Cn1c(=O)[nH]c(=O)c2c1nc(N1CCN(CCO)CC1)n2Cc1ccccc1
    -13	-14	1	1	6	2	x	-4
- O=C(c1ccccc1)c1ccc2ccccc2n1
    9	-7	-3	2	5	-125	i	2
- O=[N+]([O-])c1ccc2c(c1)CNc1ccccc1O2
    -9	x	-2	-1	-12	-15	i	1
- COc1c(OC(C)=O)ccc(/C=N\NC(=O)c2ccc(Br)cc2)c1[N+](=O)[O-]
    13	4	0	1	-7	10	i	13
- COc1cccc(/C=C/C(=O)OCC(=O)Nc2ccc(N3CCOCC3)cc2)c1OC
    -18	x	0	-3	-1	-7	x	2

Other structures follow:
Every second line gives: CSC inhib	Yeast UUG start	MT1-MMP act inh	MT1-MMP act inh RFP	PABP polyA inh	HIV Env fusion	Rce1 inh	eIF4H FP inh
- Clc1ccc(-c2nnc3sc(-c4ccc(Br)o4)nn23)cc1
    -3	x	-181	1	-3	x	x	-1
- CN1CCN(C(=O)C[C@H]2C[C@H]3c4cc(NC(=O)NC5CCCCC5)ccc4O[C@H]3[C@@H](CO)O2)CC1
    x	-15&-3	4	4	x	-12	x	x
- CC1CCC2(CC1)NC(=O)N(CC(=O)Nc1cc(S(=O)(=O)N3CCCC3)ccc1Cl)C2=O (centres undefined)
    -20	-8	5	-4	x	0	x	x
- CCNc1nnc(-c2ccc(C)cc2)o1
    -9	-14	-1	0	0	-74	i	1
- CCC(C)[C@@H](C(=O)N1CCNCC1)n1cc(CCCCN)nn1 (some centres undefined)
    -9	-7	-1	4	11	-8	i	0
- Cn1c(SCc2cccnc2)nc2cccnc21
    -6	-9	-4	-6	5	-24	i	-6
- CS(=O)(=O)NNC(=O)Cn1nnc(-c2cc(C(F)(F)F)cc(C(F)(F)F)c2)n1
    4	-11	5	5	9	3	i	15
- COC(=O)C1=C(C)N(CCCC(=O)O)C(=O)NC1c1ccc(OC)cc1 (centres undefined)
    -8	-1	-2	6	x	-17	i	x
- Cc1c(NC(=O)C2CCCN(S(=O)(=O)c3cnc[nH]3)C2)c(=O)n(-c2ccccc2)n1C (centres undefined)
    14	-13	-2	6	-3	-11	i	2
- Cc1cccc(C(=O)OCC(=O)N2CCCCCC2)c1
    -19	1	-2	1	x	x	x	x
- COc1cc(CCCN2CCNC[C@@H]2CC2CCCCC2)cc(OC)c1OC
    -14	9	5	2	x	-10	x	x
- COCCCN(C(C)=O)c1nc(-c2ccc(OC)cc2)cs1
    39	-10	2	-2	-8	-172	i	-5
- Cc1cccc([C@@H]2[C@@H]3C(=O)N(Cc4ccccc4)C(=O)[C@@H]3[C@]3(C)C(=O)N(c4cccc(Cl)c4)C(=O)N23)c1
    5	-20	2	-3	11	-7	i	3
- CC(C)C(=O)N1CCCC1(C)C(=O)NCc1ccc(Cl)cc1 (centres undefined)
    x	-5	-1	-3	x	4	x	x
- Cc1cc(C)n(CC(=O)NCCC2=CCCCC2)n1
    -10	-10	1	0	-2	10	i	-4
- CCc1cccc(CC)c1NC(=O)CSc1nnc(C(C)C)n1CC
    -19	-26	2	-8	12	-44	i	8
- CCCS(=O)(=O)N1CCCC(C(=O)N2CCCCC2)C1 (centres undefined)
    x	-5	1	3	7	-1	i	-6
- Nc1nc(NCc2ccco2)nc(NCCO)c1[N+](=O)[O-]
    -10	-5	1	4	6	0	i	11
- O=C(O)COc1ccc(C(=O)c2ccccc2)cc1
    -15	0	2	7	1	-13	i	1
- Fc1ccc(C(CCNCc2ccccn2)c2ccc(Cl)cc2)cc1 (centres undefined)
    x	-1	11	2	36	x	i	15
